# Vaccinia stage – blocks a specific stage of Vaccinia orthopoxvirus infection, primary screen, cell-based, single point. 0.01% of 89,000 active. activity change (mCherry), % (no concentration beside the values). Vaccinia-infected cells, mCherry/Venus stage reporter fluorescence; active compounds read low; some inactives read as strong as hits;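 active = mCherry past -33% and 40 or more points under the early reporter, replicates agreeing; inconclusive = past -33% without that gap or agreement; tested in A549 cells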;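 note: scaled between vehicle wells and reference inhibitor wells; 23 nL library stock went into each well; one replicate is shown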
# Vaccinia stage Venus – also measured in Vaccinia stage; calls as there; activity change (Venus), %; measured here: Venus reporter, other viral stage;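 negative = less Venus signal; first of two replicates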
# Starred values were filed as active, the others as inactive; ? = inconclusive; · = no result given; & = joins results of further samples. Not all compounds are listed; rates above refer to the full screens.
Molecule,Vaccinia stage,Vaccinia stage Venus
C[C@H]1CN([C@@H](C)CO)C(=O)Cc2cc(NC(=O)Nc3ccc(C(F)(F)F)cc3)ccc2O[C@H]1CN(C)S(=O)(=O)c1ccc(Cl)cc1,?,·
COCC(=O)N(C)C[C@@H]1Oc2cc(C#Cc3cccnc3)ccc2S(=O)(=O)N([C@@H](C)CO)C[C@@H]1C,-1,-3
C[C@H](CO)N1C[C@H](C)[C@H](CN(C)C(=O)CN(C)C)Oc2cc(-c3cccnc3)ccc2S1(=O)=O,24,10
CCCNC(=O)N1[C@H](CO)[C@@H]2c3ccccc3N(C(=O)Nc3ccc(F)cc3)C[C@@H]21,9,13
C[C@@H]1CN([C@H](C)CO)C(=O)c2cc(C#CCN(C)C)cnc2O[C@H]1CN(C)C,14,9
CC(C)NC(=O)Nc1ccc2c(c1)CC(=O)N([C@@H](C)CO)C[C@@H](C)[C@@H](CN(C)S(C)(=O)=O)O2,8,7
C[C@H](CO)N1C[C@H](C)[C@@H](CN(C)C(=O)Nc2ccccc2)OCCCC[C@H](C)Oc2ccc(NC(=O)Cc3ccccc3)cc2C1=O,6,1
COc1ccc(NC(=O)Nc2ccc3c(c2)C(=O)N([C@@H](C)CO)C[C@@H](C)[C@H](CN(C)Cc2ccncc2)O3)cc1,6,3
Cc1ccc(S(=O)(=O)N(C)C[C@@H]2Oc3cc(C#Cc4ccncc4)ccc3S(=O)(=O)N([C@@H](C)CO)C[C@H]2C)cc1,-20,0
COc1ccccc1NC(=O)N1C[C@@H](O)COC[C@H]2O[C@@H](CC(=O)NCc3ccccc3)CC[C@@H]21,-6,-3
C[C@H](CO)N1C[C@H](C)[C@H](CN(C)C(=O)Nc2ccc3c(c2)OCO3)Oc2ccc(NC(=O)Nc3ccccc3)cc2CC1=O,24,20
Cc1ccc(S(=O)(=O)N[C@H]2CC[C@H](CCn3cc(-c4cccnc4)nn3)O[C@H]2CO)cc1,1,0
CC(C)C#Cc1cnc2c(c1)C(=O)N([C@@H](C)CO)C[C@H](C)[C@@H](CN(C)C(=O)c1cccc(F)c1)O2,3,-1
COc1cccc(C#Cc2cnc3c(c2)C(=O)N([C@@H](C)CO)C[C@H](C)[C@@H](CN(C)C(=O)C2CCOCC2)O3)c1,1,3
O=C(C1CCCCC1)N1CC(=O)N2[C@H](C1)[C@@H](c1ccc(Br)cc1)[C@@H]2CO,-18,-11
C[C@H](CO)N1C[C@H](C)[C@@H](CN(C)C(=O)NC2CCCCC2)OCc2cnnn2CCCC1=O,7&0,6&2
CCCNC(=O)C[C@H]1CC[C@H]2[C@H](COc3ccc(NC(=O)c4cccs4)cc3C(=O)N2C)O1,10,-2
C[C@H](CO)N1C[C@H](C)[C@H](CN(C)C(=O)c2ccccc2)Oc2ncc(/C=C/c3ccccc3)cc2C1=O,9,-4
C[C@@H]1CN([C@H](C)CO)C(=O)c2cc(-c3cncnc3)cnc2O[C@H]1CN(C)C(=O)CN1CCOCC1,32,9
C[C@H](CO)N1C[C@H](C)[C@H](CN(C)Cc2ccncc2)OCCCC[C@H](C)Oc2ccc(NC(=O)c3ccncc3)cc2C1=O,12,6
C[C@@H]1CN([C@H](C)CO)C(=O)c2cc(NS(=O)(=O)c3ccc(Cl)cc3)ccc2O[C@@H](C)CCCCO[C@@H]1CN(C)S(=O)(=O)c1cn(C)cn1,12,3
CCN1[C@H](C(=O)NCc2cccc(OC)c2)[C@@H](CO)[C@@H]2Cn3c(ccc(C4=CCCCC4)c3=O)[C@@H]21,6,4
Cc1noc(C)c1S(=O)(=O)Nc1ccc2c(c1)CC(=O)N([C@@H](C)CO)C[C@@H](C)[C@H](CN(C)CC1CCCCC1)O2,?,·
CNC[C@@H]1OCCCC[C@@H](C)Oc2ccc(NC(=O)Nc3ccccc3)cc2C(=O)N([C@@H](C)CO)C[C@H]1C,10,14
C[C@@H]1CN([C@H](C)CO)C(=O)CCCn2nncc2CO[C@H]1CN(C)Cc1cccc(O)c1,6,7
O=S(=O)(c1ccccc1)N1CCCCN2[C@H](C1)[C@H](c1ccc(-c3cncnc3)cc1)[C@@H]2CO,7,-7
O=C(NCC1CC1)[C@H]1[C@H](CO)[C@H]2Cn3c(cccc3=O)[C@H]2N1CCC(F)(F)F,4,10
Cc1ccc(S(=O)(=O)Nc2cccc3c2O[C@@H](CN(C)CC2CC2)[C@H](C)CN([C@@H](C)CO)C3=O)cc1,-3,15
O=C(NCC[C@@H]1CC[C@@H](NC(=O)C2CCOCC2)[C@H](CO)O1)c1ccc(F)cc1,-9,-4
C[C@@H]1CCCCO[C@H](CN(C)S(=O)(=O)c2cn(C)cn2)[C@H](C)CN([C@@H](C)CO)C(=O)c2cc(NC(=O)c3ccccc3)ccc2O1,11,8
C[C@@H]1CN([C@H](C)CO)C(=O)Cc2cc(NS(=O)(=O)c3cn(C)cn3)ccc2O[C@@H]1CN(C)C,5,1
C[C@@H]1CCCCO[C@H](CN(C)C(=O)NC2CCCCC2)[C@H](C)CN([C@@H](C)CO)C(=O)c2cc(NS(=O)(=O)c3ccc(Cl)cc3)ccc2O1,?,·
COCC(=O)Nc1ccc2c(c1)C(=O)N(C)C[C@@H](OC)[C@@H](C)CN(C(=O)COC)[C@@H](C)CO2,-2,3
CN(C)CC(=O)N[C@@H]1CC[C@H](CCn2cc(C3CCCC3)nn2)O[C@@H]1CO,11,11
CN1C(=O)c2cc(NC(=O)C3CC3)ccc2OC[C@@H]2O[C@@H](CC(=O)NCc3ccccc3F)CC[C@H]21,21,12
C[C@H](O)C#Cc1ccc2c(c1)O[C@H](CN(C)C(=O)c1ccccc1)[C@@H](C)CN([C@H](C)CO)S2(=O)=O,7,1
CCC(=O)N1CC2(CCN(Cc3cncnc3)CC2)c2c([nH]c3cc(OC)ccc23)[C@H]1CO,-11,-7
Cc1noc(C)c1S(=O)(=O)N(C)C[C@H]1Oc2ccc(NC(=O)CCCN(C)C)cc2C(=O)N([C@@H](C)CO)C[C@H]1C,23,19
CC(C)NC(=O)Nc1ccc2c(c1)C(=O)N([C@H](C)CO)C[C@H](C)[C@H](CN(C)C(=O)NC1CCCCC1)OCCCC[C@H](C)O2,12,12
O=C(N[C@@H]1CC[C@H](CCNC(=O)C2CCCC2)O[C@@H]1CO)c1ccncc1,-11,1
COCC(=O)N1CC2(C1)[C@H](c1ccccc1)[C@H](CO)N2CCC(F)(F)F,1,12
COC(=O)c1ccc(CN2CC(=O)N3[C@H](CO)[C@@H](c4ccc(-c5cccnc5)cc4)[C@H]3C2)cc1,10,6
CCS(=O)(=O)N1CCCCN2[C@@H](CO)[C@@H](c3ccc(C4=CCCC4)cc3)[C@@H]2C1,4,-6
Cc1cc(C(=O)Nc2cccc3c2O[C@@H](CN(C)C(=O)Nc2ccc(C(F)(F)F)cc2)[C@H](C)CN([C@H](C)CO)C3=O)n(C)n1,-6,-7
C[C@@H]1CCCCO[C@@H](CN(C)C(=O)Nc2cccc3ccccc23)[C@H](C)CN([C@@H](C)CO)C(=O)c2cc(NC(=O)C3CCCCC3)ccc2O1,20,14
C[C@@H]1CN([C@H](C)CO)C(=O)c2cccc(NS(=O)(=O)c3cn(C)cn3)c2O[C@@H]1CN(C)Cc1ccc2c(c1)OCO2,25,15
C[C@H]1CN([C@@H](C)CO)S(=O)(=O)c2ccc(-c3cccc(C#N)c3)cc2O[C@@H]1CN(C)C(=O)c1ccc(F)cc1,-6,-6
COCC(=O)N[C@@H]1CC[C@@H](CC(=O)NCc2ccccc2OC)O[C@@H]1CO,5,8
C[C@@H]1CCCCO[C@@H](CN(C)S(=O)(=O)c2ccc(F)cc2)[C@H](C)CN([C@H](C)CO)C(=O)c2cc(NC(=O)NC3CCCCC3)ccc2O1,-28,-16
CNC(=O)C[C@@H]1CC[C@@H]2[C@@H](COc3ccc(NC(=O)Nc4ccc(C)cc4)cc3C(=O)N2C)O1,6,7

# Whole records, quoted from the list. Values in the order: Vaccinia stage	Vaccinia stage Venus
# Profile of C[C@@H]1CN([C@H](C)CO)C(=O)c2cc(-c3cncnc3)cnc2O[C@H]1CN(C)C(=O)CN1CCOCC1 : 32	9
# Profile of CNC(=O)C[C@@H]1CC[C@@H]2[C@@H](COc3ccc(NC(=O)Nc4ccc(C)cc4)cc3C(=O)N2C)O1 : 6	7

# (next part)
Molecule,Vaccinia stage,Vaccinia stage Venus
COc1ccc(CN(C)C[C@@H]2Oc3ccc(NC(=O)NC(C)C)cc3C(=O)N([C@@H](C)CO)C[C@@H]2C)cc1,12,9
CCc1sc(N2[C@H](C#N)[C@H](c3ccccc3-c3cccc(C)c3)[C@H]2CO)nc1C,-22,-15
C/C=C/c1ccc([C@@H]2[C@@H](CO)N(C(=O)CN(C)C)C23CN(C(=O)C2CCCCC2)C3)cc1,?,·
C[C@H](CO)N1C[C@H](C)[C@@H](CN(C)C)Oc2cc(-c3cccc(F)c3)ccc2S1(=O)=O,-15,-18
C[C@@H]1CN([C@@H](C)CO)C(=O)c2cc(C3=CCCC3)cnc2O[C@H]1CN(C)C(=O)CN1CCOCC1,24,3
COCC(=O)N1CCCCN2[C@H](CO)[C@@H](c3ccc(C#Cc4cccnc4)cc3)[C@@H]2C1,23,16
COc1ccc2c3c(n(C)c2c1)[C@@H](CO)N(CC1CC1)CC31CCN(C(=O)Nc2c(C)noc2C)CC1,-19,-31
O=C(C[C@@H]1CC[C@@H](NC(=O)CCN2CCCCC2)[C@H](CO)O1)NCc1ccc(Cl)c(Cl)c1,-23,-10
COc1ccc(CN(C)C[C@H]2OCCCC[C@@H](C)Oc3ccc(NC(=O)CCC(F)(F)F)cc3C(=O)N([C@@H](C)CO)C[C@H]2C)cc1,-30,-25
C[C@@H]1CN([C@@H](C)CO)S(=O)(=O)c2ccc(-c3ccc(C(=O)N(C)C)cc3)cc2O[C@H]1CN(C)Cc1ccc2c(c1)OCO2,?,·
COc1cccc(S(=O)(=O)N[C@H]2C=C[C@@H](CC(=O)NCc3ccc(F)cc3)O[C@H]2CO)c1,-6,-6
COC(=O)C1(N2C(=O)O[C@@H](Cc3ccccc3)[C@H]2/C=C/C2CC2)CCCC1,-1,10
C[C@H](O)C#Cc1ccc([C@H]2[C@@H](CO)N3CCCCN(C(=O)c4cccc(F)c4)C[C@H]23)cc1,16,3
C[C@H]1CN([C@@H](C)CO)C(=O)c2cc(-c3cccnc3)cnc2O[C@H]1CN(C)C(=O)Nc1ccc2c(c1)OCO2,2,14
CCC(=O)N[C@@H]1CC[C@@H](CC(=O)NCC2CC2)O[C@@H]1CO,13,5
CN1C[C@H]2[C@@H](c3ccccc31)[C@@H](CO)N2C(=O)Nc1ccccc1Cl,7,4
C[C@H]1CN([C@@H](C)CO)C(=O)c2cc(NC(=O)CCCN(C)C)ccc2O[C@H]1CN(C)Cc1ccc(Cl)c(Cl)c1,-30,-24
O=C(c1ccccc1)N1CC(=O)N2[C@H](CO)[C@H](c3ccc(C#Cc4ccccc4)cc3)[C@H]2C1,?,·
C[C@H](CO)N1C[C@H](C)[C@@H](CN(C)Cc2ccc(C(=O)O)cc2)OCCCC[C@H](C)Oc2ccc(NS(=O)(=O)c3ccc(Cl)cc3)cc2C1=O,27,17
CCO[C@H]1OC(C(=O)NC2CC2)=C[C@@H](c2ccc(C(F)(F)F)cc2)[C@@H]1CCCO,8,3
N#C[C@H]1[C@@H](c2ccccc2C2=CCCC2)[C@H](CO)N1C(=O)Cc1ccncc1,4,-1
COCCN(C[C@H]1N[C@H](CO)[C@H]1c1ccc(-c2ccc(F)cc2)cc1)C(C)=O,-8,-1
O=C(Nc1ccccc1F)N[C@@H]1CC[C@@H](CCNC(=O)C2CCCC2)O[C@@H]1CO,-7,-5
C[C@@H]1CN([C@H](C)CO)C(=O)Cc2cc(NC(=O)Nc3ccc(C(F)(F)F)cc3)ccc2O[C@@H]1CN(C)Cc1ccc(-c2ccccc2)cc1,1,10
COCC#Cc1ccc(CC[C@H]2O[C@H]3CC[C@@H](CO)O[C@H]3C[C@H]2n2cc(C(C)(C)O)nn2)cc1,18,5
C[C@@H]1CN([C@@H](C)CO)C(=O)c2cc(NC(=O)Nc3ccc(C(F)(F)F)cc3)ccc2O[C@H]1CN(C)C(=O)Nc1ccc(C(F)(F)F)cc1,-24,-8
CCO[C@@H]1OC(C(=O)N2CCCC2)=C[C@H](c2ccc(C(F)(F)F)cc2)[C@H]1CCCO,0,-2
COC(=O)C[C@H]1CC[C@H]2[C@H](COc3ccc(NC(=O)c4cnccn4)cc3C(=O)N2C)O1,11,7
C[C@@H]1CN([C@@H](C)CO)C(=O)c2cc(C3=CCCCC3)cnc2O[C@@H]1CN(C)C(=O)Nc1ccccc1,-18,-14
COc1ccc(S(=O)(=O)N(C)C[C@@H]2Oc3c(NS(C)(=O)=O)cccc3C(=O)N([C@@H](C)CO)C[C@H]2C)cc1,-8,6
C[C@@H]1CN([C@@H](C)CO)C(=O)Cc2cc(NC(=O)c3ccncc3)ccc2O[C@@H]1CN(C)Cc1ccc(C(F)(F)F)cc1,?,·

# A second format for three compounds above:
> C[C@H](O)C#Cc1ccc2c(c1)O[C@H](CN(C)C(=O)c1ccccc1)[C@@H](C)CN([C@H](C)CO)S2(=O)=O
  Vaccinia stage = 7; Vaccinia stage Venus = 1
> CCC(=O)N1CC2(CCN(Cc3cncnc3)CC2)c2c([nH]c3cc(OC)ccc23)[C@H]1CO
  Vaccinia stage = -11; Vaccinia stage Venus = -7
> Cc1noc(C)c1S(=O)(=O)N(C)C[C@H]1Oc2ccc(NC(=O)CCCN(C)C)cc2C(=O)N([C@@H](C)CO)C[C@H]1C
  Vaccinia stage = 23; Vaccinia stage Venus = 19
